# Source: PubChem
# PrP 5UTR inh: inhibition of PrP 5' UTR reporter expression; cell-based PrP 5' UTR mRNA reporter, plate reader; inhibition, % (concentration not given with the values); 340,000 tested, 0.35% active; AID 488862, 2010;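 active means every replicate at 50% or more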;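 further: 0 = median of the neutral control wells; tested in H4 reporter cells; numbers are from one replicate; inactives centre near -14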
# Bead autofluor: flagged as autofluorescent in microsphere protease counterscreen; AID 624483; 360,000 tested, 3.1% active; compound autofluorescence counterscreen, microsphere flow cytometry; hits give high values; fluorescence intensity (concentration not given with the values);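 active means at least 3 SD above the mean of all compounds, about 16000 in these data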;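 further: 100 nL of 1 mM stock went into each well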
# BJeLR viability: MLPCN primary cell-based screen for lethality selective to Ras in HRASV12 cells | BJeLR (HRASV12) viability, CellTiter-Glo ATP luminescence, 48 h; reference of the scale not given here | inhibition, % (test concentration not listed) | 300,000 tested, 0.17% active | AID 1554, 2009;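 active means replicate mean above 50%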;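 further: 50 nL library stock added to about 25 µL; numbers are from one replicate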
# Mtb hypoxia inh: PubChem AID 1159583; 300,000 tested, 0.1% active; M. tuberculosis hypoxia-regulated fluorescent reporter, fluorescence; fluorescence inhibition, % (concentration not given with the values);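 active means 35 to 45% if threefold the growth effect, above 45% if 1.5-fold the growth effect; inactive means the rest, general growth blockers included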;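 further: wells of about 50 µL received 100 nL stock; 0% = vehicle wells and 100% = reference inhibitor wells; whole bacteria with a GFP reporter of the hypoxia response; strong numbers were not always called active; many hits fall short of the cut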
# Sa RN4220 lethal: growth inhibition of S. aureus RN4220, primary screen, OD600. 330,000 tested, 0.33% active. 16 h. inhibition, % (concentration not given with the values). AID 1259311, 2017;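 active means z-score of -3 or lower and OD600 up to 0.18 on both plates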;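 further: plate controls were untreated cells for no effect and reference antibiotic for full effect; stock transfer was 100 nL into about 80 µL; one replicate is shown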
# Sa ugtP lethal: growth inhibition of ugtP-null S. aureus, primary screen, RN4220 ugtP deletion, OD600; 16 h; some inactives read as strong as hits; growth inhibition, % (test concentration not listed); 330,000 tested, 0.54% active;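 active means z-score under -3 and OD600 up to 0.15 on both plates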;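 further: plate controls were untreated wells for no effect and antibiotic for full effect; wells of about 80 µL received 100 nL stock; the first replicate is given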
# Mtb hypoxia inh growth: further read-out of Mtb hypoxia inh, marked with its call; growth inhibition, %; measured here: M. tuberculosis growth (absorbance);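 0% = vehicle and 100% = reference antibiotic; read after six days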
# * hit, by the source's call; nt = not tested or not shown. Hits appear at their usual frequency; 4% or so of the library scored in one or more.
SMILES,PrP 5UTR inh,Bead autofluor,BJeLR viability,Mtb hypoxia inh,Mtb hypoxia inh growth,Sa RN4220 lethal,Sa ugtP lethal
CC(=NNC(=S)Nc1ccc(C)c(C)c1)c1ccc(N2CCOCC2)cc1,nt,nt,nt,-8.3,5.6,-8.7,5.1
O=C(c1ccccc1)N1CCN(C(=O)c2nn3c(C(F)(F)F)cc(-c4ccco4)nc3c2Cl)CC1,-6.7,3615,4.4,-1.0,7.6,1.3,7.7
O=C(Nc1n[nH]c(C2CCCCC2)n1)C1CCCCC1,-0.9,8750,-6.9,-0.6,4.6,-2.4,4.2
O=C(NCC(c1ccco1)N1CCN(c2ccccc2F)CC1)OCc1ccccc1 (stereo not drawn),2.8,2104,8.0,2.0,-0.8,0.8,16.1
O=C1C(=O)N(CCN2CCOCC2)C(c2ccc(Cl)c(Cl)c2)/C1=C(/O)c1ccc2c(c1)OCO2 (stereo not drawn),-9.8,4566,-3.7,8.0,-3.4,6.8,8.5
CCN(Cc1ccncc1)C(=O)c1cc(COc2c(C)cccc2C)on1,-7.5,7294,3.8,0.9,10.3,6.2,-3.0
CC1Cc2ccccc2N1CC(=O)c1c(N)n(Cc2ccccc2)c(=O)n(C)c1=O (stereo not drawn),-20.2,3216,6.4,6.5,0.1,-4.6,-2.1
Cc1ccc2nc(-c3ccncc3)c(NC3CCCCC3)n2c1,-31.9,7310,-0.8,-0.3,16.8,-1.3,-7.4
C[C@H]1CN([C@@H](C)CO)C(=O)c2cc(NS(=O)(=O)c3ccc(Cl)cc3)ccc2O[C@@H]1CN(C)CC1CCCCC1,-14.5,3522,nt,6.1,8.0,-16.0,-3.7
Cc1nc(C(=O)Nc2ccccc2)sc1C(=O)Nc1ccccc1,-97.2,3152,-2.9,-1.8,-3.5,2.0,7.9
O=C(c1ccco1)N1CCC(c2nc3c(nnn3Cc3ccccc3Cl)c(=O)[nH]2)CC1,-19.2,3544,-8.9,4.8,8.1,-4.0,11.7
CCc1c(C)nc2ncnn2c1N1CCC(C(=O)Nc2ccc(C)cc2)CC1,-3.5,16008,6.8,-7.7,4.2,-3.6,-4.6
CCCCOc1ccc(C(=O)N/C(=C\c2ccc(OC)cc2)C(=O)OCc2ccco2)cc1,-0.1,2698,-4.0,nt,nt,-4.5,8.9
CCc1sc(NC(=O)CN2CCOCC2)nc1-c1ccccc1,-35.5,7610,2.0,4.5,11.7,7.3,2.1
COC(=O)c1sccc1NC(=O)c1ccc(OC)c([N+](=O)[O-])c1,-16.5,3403,10.7,-1.2,2.0,1.4,2.5
CC(C)(C)C1CCC(N2CCN(c3ccccc3)CC2)CC1 (stereo not drawn),-14.6,3967,0.3,2.4,-8.9,-0.9,3.4
COc1ccc(OC)c(C=NN=C(N)c2nonc2N)c1,nt,nt,nt,0.8,5.0,7.4,7.7
CC(=O)N[C@@H](C)C(=O)N1CCN(S(=O)(=O)c2ccc(Cl)cc2)CC1,-30.5,4303,1.7,-8.5,5.5,4.1,4.5
Nc1nnnn1CC(=O)N/N=C/c1cc([N+](=O)[O-])ccc1Cl,-24.2,4742,2.8,nt,nt,nt,nt
COc1ccc(/C=C(/NC(=O)c2ccc(OC)cc2)C(=O)NCCc2c[nH]c3ccccc23)cc1,15.1,2022,-3.1,-6.0,-5.8,4.2,5.5
CCN1CCN(c2ccc(NC(=O)c3ccc(Cl)c(N4CCCC4=O)c3)cc2)CC1,-6.6,5077,-14.8,4.1,5.6,2.9,-2.4
ClCCN(CCCl)c1ccc(C=NNc2ncccn2)cc1,-48.8,3099,nt,15.7,8.0,2.8,-0.1
Cc1ccc(-c2nc(NC(=O)c3cc(C(C)(C)C)nn3C)sc2C)cc1Cl,-15.5,6539,4.7,3.6,-3.1,9.8,-3.8
CN(C)c1ncc(C(=O)O)cn1,-13.2,16816*,0.1,6.7,0.6,3.5,3.2
O=C(N/N=C/c1cccc2ccccc12)c1cccnc1,-13.1,3804,-7.3,nt,nt,nt,nt
CCC(C)C(=O)Nc1cccc(SC)c1 (stereo not drawn),nt,nt,0.2,2.0,2.2,7.6,7.3
O=c1c2ccccc2nc(-c2ccccc2)n1-c1ccccc1,8.4,4089,-0.5,3.6,-6.0,2.5,9.7
COC(=O)c1ccc(NC(=O)CCN2C(=O)C3C4CCC(C4)C3C2=O)cc1 (stereo not drawn),0.5,5556,-1.2,2.7,5.8,0.1,2.9
OC(C#CCN1CCCC1)(c1ccccc1)c1cccnc1 (stereo not drawn),11.9,4358,-0.9,7.9,2.5,1.3,1.8
CC1(C)C2CCC1(CS(=O)(=O)N1CCCc3ccccc31)C(=O)C2 (stereo not drawn),-4.2,2419,1.7,nt,nt,7.4,1.9
COc1cc2ncc(C(=O)c3ccccc3)c(N3CCN(Cc4ccccc4)CC3)c2cc1OC,-7.9,6073,11.7,-11.3,17.3,-5.9,14.1
O=C(C1CCN(Cc2ccc(F)cc2)CC1)N(CCc1ccccc1)Cc1ccccc1,-50.9,2003,3.2,23.6,4.4,1.5,-1.4
O=C(CC1C(=O)NCCN1CC1CCCCC1)NCc1ccc(F)cc1 (stereo not drawn),-18.1,4529,6.0,1.7,-3.1,5.0,5.3
O=C(CN(C(=O)c1csnn1)c1cccc(Cl)c1)NC1CCCCC1,-12.2,3562,0.6,0.7,-0.9,0.0,8.7
CC(/C=C/C=C/c1ccccc1)=N/NC(=O)C(O)c1ccccc1 (stereo not drawn),-20.8,3864,-15.2,nt,nt,nt,nt
CS(=O)(=O)N(CC(=O)N1CCCC1)c1cc(C(F)(F)F)ccc1Cl,-14.0,3599,-2.8,2.4,2.9,4.1,4.0
CCOc1ncccc1C(=O)OCC(=O)N(CC(C)C)c1c(N)n(Cc2ccccc2)c(=O)[nH]c1=O,-16.7,6865,-10.5,4.7,-1.0,-1.4,1.2
CCN(Cc1ccccc1)C(=O)CSc1ncn[nH]1,-2.1,5701,-12.0,16.7,3.6,0.2,1.8
c1ccc2c(OCCCCN3CCCC3)cccc2c1,-12.2,4990,0.3,12.2,10.4,-0.3,2.7
CCOC(=O)c1cccc(NC(=O)CCc2ccccc2)c1,-12.4,4484,9.3,-4.6,-3.5,5.8,3.5
Cc1cn(C(C)C)c(=O)n(-c2ccccc2)c1=O,-11.4,3531,nt,2.6,14.4,-3.0,-3.6
CCOC(=O)c1c(C)[nH]c(C)c1C=O,-2.3,4701,4.1,nt,nt,nt,nt
Cc1ccc(S(=O)(=O)N2CCC(=O)N(C(COC(=O)Nc3ccccc3)Cc3ccccc3)CC2)cc1 (stereo not drawn),-6.9,3931,-1.7,-5.4,3.6,5.8,18.0
CC1(C)c2[nH]c3ccccc3c2C[C@@H]2C(=O)N(c3ccc(F)cc3F)C(=O)N21,3.8,4269,-5.1,nt,nt,nt,nt
Nn1c(SCC(=O)NCc2ccc3c(c2)OCO3)nnc1C1CC1,-46.7,3055,-2.5,-1.3,-8.1,-3.8,-9.1
Cc1cc(N2CCOCC2)nc(SCc2c(Cl)cccc2Cl)n1,-6.1,2140,-14.0,1.8,2.7,-5.8,15.3
Cn1c(SCC(=O)N2CCOCC2)nc2c(c1=O)SCC2,-16.6,4319,-12.3,4.4,2.9,0.7,0.7
Nc1c(S(=O)(=O)c2ccccc2)nnn1-c1ccccc1,-28.6,9170,6.4,3.8,13.1,4.7,1.0

# The closing 5 compounds of the part before are carried over, then new ones follow.
SMILES,PrP 5UTR inh,Bead autofluor,BJeLR viability,Mtb hypoxia inh,Mtb hypoxia inh growth,Sa RN4220 lethal,Sa ugtP lethal
CC1(C)c2[nH]c3ccccc3c2C[C@@H]2C(=O)N(c3ccc(F)cc3F)C(=O)N21,3.8,4269,-5.1,nt,nt,nt,nt
Nn1c(SCC(=O)NCc2ccc3c(c2)OCO3)nnc1C1CC1,-46.7,3055,-2.5,-1.3,-8.1,-3.8,-9.1
Cc1cc(N2CCOCC2)nc(SCc2c(Cl)cccc2Cl)n1,-6.1,2140,-14.0,1.8,2.7,-5.8,15.3
Cn1c(SCC(=O)N2CCOCC2)nc2c(c1=O)SCC2,-16.6,4319,-12.3,4.4,2.9,0.7,0.7
Nc1c(S(=O)(=O)c2ccccc2)nnn1-c1ccccc1,-28.6,9170,6.4,3.8,13.1,4.7,1.0
CC(O)(CS(=O)(=O)Cc1ccc(Cl)cc1)C(=O)Nc1cccc(C(F)(F)F)c1 (stereo not drawn),-2.7,11154,3.2,-4.8,0.1,7.6,-11.9
CCCC(=O)c1ccc(N2CCOCC2)c(F)c1,-56.7,2191,3.2,nt,nt,21.2,19.0
Cc1ccc(CC2CC(=O)N(CC(=O)O)C2=O)cc1 (stereo not drawn),-22.4,5315,6.6,12.1,4.8,0.7,3.1
COc1ccc(OC)c(N/C=C/C(=O)c2ccc(OC)c(OC)c2)c1,-6.9,nt,-3.6,6.7,5.1,1.5,-11.5
CCn1c(SCC(=O)Nc2ccc(N3CCOCC3)c(Cl)c2)nnc1-c1ccc(N)cc1,16.0,8891,4.9,2.2,0.9,3.1,7.5
COc1ccc(S(=O)(=O)N2CCOC23CCN(S(=O)(=O)c2ccccc2)CC3)cc1,-84.1,5041,1.7,0.5,6.4,2.6,6.1
NC(=O)C1CCN(C(=O)c2cc(S(=O)(=O)N3CCOCC3)c(Cl)cc2Cl)CC1,-29.6,4175,-0.5,7.1,6.5,3.7,-2.7
O=C(O)CC/C(=N\NC(=O)c1ccc(F)cc1)c1ccc(Br)cc1,-22.3,3427,-9.7,nt,nt,nt,nt
CC(=O)C1CCC2C3CC=C4N(C)C(=O)CCC4(C)C3CCC12C (stereo not drawn),-31.2,2999,nt,21.9,13.0,5.1,8.6
CC1=CC(=C(C#N)C#N)C=C(C)N1Cc1ccccc1,-37.7,3752,3.3,3.0,9.5,-2.7,2.8
CCn1c(=O)c(C(=O)Nc2ccccc2)c(O)c2ccccc21,-22.7,2933,-1.9,12.9,4.7,-5.4,6.3
COc1cccc(-c2n[nH]c(=S)n2Cc2ccco2)c1,-12.4,3498,0.4,-6.1,0.6,7.2,-8.5

# Reprinted at random: 6 compounds from above
SMILES,PrP 5UTR inh,Bead autofluor,BJeLR viability,Mtb hypoxia inh,Mtb hypoxia inh growth,Sa RN4220 lethal,Sa ugtP lethal
CCn1c(=O)c(C(=O)Nc2ccccc2)c(O)c2ccccc21,-22.7,2933,-1.9,12.9,4.7,-5.4,6.3
O=C(O)CC/C(=N\NC(=O)c1ccc(F)cc1)c1ccc(Br)cc1,-22.3,3427,-9.7,nt,nt,nt,nt
COc1ccc(OC)c(N/C=C/C(=O)c2ccc(OC)c(OC)c2)c1,-6.9,nt,-3.6,6.7,5.1,1.5,-11.5
CC(=O)C1CCC2C3CC=C4N(C)C(=O)CCC4(C)C3CCC12C (stereo not drawn),-31.2,2999,nt,21.9,13.0,5.1,8.6
COc1cccc(-c2n[nH]c(=S)n2Cc2ccco2)c1,-12.4,3498,0.4,-6.1,0.6,7.2,-8.5
CCn1c(SCC(=O)Nc2ccc(N3CCOCC3)c(Cl)c2)nnc1-c1ccc(N)cc1,16.0,8891,4.9,2.2,0.9,3.1,7.5

# More compounds follow.
SMILES,PrP 5UTR inh,Bead autofluor,BJeLR viability,Mtb hypoxia inh,Mtb hypoxia inh growth,Sa RN4220 lethal,Sa ugtP lethal
O=C(NCCNC(=O)c1ccc([N+](=O)[O-])cc1)c1ccncc1,-3.3,2516,-11.4,0.4,8.3,2.2,5.0
O=C(NC1CC2CCCC(C1)N2C(=S)NCCc1ccccc1)C1CC1 (stereo not drawn),-10.7,3400,-7.1,17.2,1.5,11.3,8.3
CC(C)(C)c1cc(NC(=O)Nc2ccc(Br)cc2Cl)no1,-24.2,4070,4.6,2.4,5.9,-3.7,-24.9
Cc1ccccc1NC(=O)Cc1nc(COC(=O)COc2ccccc2C(C)C)cs1,-16.7,5690,nt,5.3,-1.8,5.2,1.3
Cc1ccc(C(=O)Nc2ncccc2S(=O)(=O)c2ccccc2)cc1,-30.8,3560,6.3,-9.8,3.2,-1.9,2.1
Cc1nn(-c2ccccc2)c(Cl)c1C(=O)N(C)c1nc(-c2ccc(F)cc2)cs1,nt,nt,0.7,-11.5,-1.9,-1.8,-5.7
O=C1NC(=S)NC(=O)C1=Cc1ccc(OCc2ccccc2)cc1,-41.7,3428,nt,6.8,5.7,7.8,2.4
CCc1ccc(-c2nc(CS(=O)CC(=O)NCCCN3CCOCC3)c(C)o2)cc1 (stereo not drawn),-1.4,6209,-1.5,18.8,3.4,5.4,1.9
Cc1ccc(-c2nnc(SCC(=O)NC(=O)Nc3ccc(C)cc3C)n2N)cc1,-23.1,2043,12.8,0.0,-7.4,-0.7,8.3
